Anthrax LT inh: qHTS Assay for Anthrax Lethal Toxin Internalization; Potency, µM (series often up to 40 µM), without a hit: at the highest dose activity change, negative = inhibition, hits mostly inhibitors; AID 912, 2007; hit rate 0.67% among 70,000; Cells, anthrax lethal toxin internalization, FRET ratio (460/530); active = well fitted falling ratio curve with the 530 nm signal flat; inconclusive = other ratio curves, or a change in one channel alone; inactive = flat curves in the ratio and both channels; the % refers to the ratio; note: % is set by controls: 0 for no effect and ±100 for the full control effect; nearly all actives have a fitted effect of over 50% in size; tested in ME-180 cells; beta-lactamase reporter
SmPrx2 inh: Schistosoma Mansoni Peroxiredoxins (Prx2). S. mansoni Prx2 activity coupled to TGR/GSH (TGR is thioredoxin glutathione reductase), NADPH fluorescence loss, qHTS; some inactives read as strong as hits. Potency, µM. hit rate 0.07% among 65,000; active means full or partial inhibition curve with a strong effect at the top dose; inconclusive means weaker partial or single-point curve; inactive means no accepted curve; note: series up to 57 µM; many of its hits are not listed in these tables
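Prx2 activity was followed as the loss of NADPH fluorescence (ex 365/em 450 nm), read every 30 sec for 8 min after H2O2 start. The enzyme mix (50 nM Prx2, 25 nM TGR, GSH, NADPH; pH 7.4 phosphate buffer) was incubated with compound for 15 min at room temperature first.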
An asterisk follows results filed as active; ? = inconclusive; nt = no result given; & = joins results of further samples; [ ] = dose if it differs, or a comment. Potency is the fitted concentration of half-maximal effect.

SMILES	Anthrax LT inh	SmPrx2 inh
O=C(NC1CCCCC1)C(c1ccccc1)N(Cc1ccco1)C(=O)Cn1cnc2ccccc21 (configuration not stated)	?	>57
NC(N)=NC[C@H](N)C(=O)O	2.0%[8 µM]	>57
CC(=O)N=c1sc2nc3ccccc3nc2n1N(C(C)=O)C(C)=O	4.0%	>57
COC(=O)c1ccc(Oc2nc(Nc3ccc(F)cc3)nc(N3CCCC3)n2)cc1	-1.8%	>57
O=C1NC2(CCCCC2)N=C1c1ccccc1	-8.1%	>57
CCCC(=O)N1c2ccccc2[C@@H](N(C(C)=O)c2ccccc2)C[C@H]1C	-4.6%	>57
Cc1onc(-c2ccccc2)c1C(=O)Nc1ccc(S(=O)(=O)NC2=NCCCCC2)cc1	10.9%	>57
COc1ccc(S(=O)(=O)N2CCCC(C(=O)NCc3ccncc3)C2)cc1Cl (configuration not stated)	-0.5%	>57
COc1cccc(C2C(C#N)=C(N)OC3=C2C(=O)CCC3)c1OC(=O)c1ccco1 (configuration not stated)	?	>57
COc1cccc(C2/C(=C(\O)c3c(C)nc4c(C)cccn34)C(=O)C(=O)N2CCCN(C)C)c1OC (configuration not stated)	1.0%	>57
CN1CCN(Cc2ccccc2C(F)(F)F)CC1	-6.4%	nt
Cn1c(SCC(=O)Nc2cccc(NC(=O)c3cccs3)c2)nnc1-c1ccncc1	-2.4%	>57
Nc1nc(C(=O)N2CCOCC2)nn1C(=O)c1ccc(Cl)cc1	2.7%	>57
CCOc1ccc2[nH]c(=O)c(CN(CCCO)C(C)=O)cc2c1	-4.2%	>57
O=C1CC(N2CCN(c3cccc(C(F)(F)F)c3)CC2)C(=O)N1c1ccc(F)cc1 (configuration not stated)	-13.2%	nt
COC(=O)c1sc(N2C(=O)c3oc4ccccc4c(=O)c3C2c2cccs2)nc1C (configuration not stated)	-2.0%	>57
CCCn1c(=S)[nH]c2cc(C(=O)N3CCCC(C(=O)OCC)C3)ccc2c1=O (configuration not stated)	nt	>57
O=C(NC1CCN(C(=O)NCc2ccccc2)CC1)c1ccco1	5.6%	>57
COc1cccc(-c2nnn(CC(=O)Nc3ccc(C)cc3C)n2)c1OC	-1.0%	>57
CC(N)=NCCC[C@H](N)C(=O)O	0.3%&3.6%	>57&>57
O=C(CN1C(=O)c2ccccc2C1=O)N1CCOCC1	-4.2%	>57
Cc1cc2n(n1)C(c1c[nH]c3ccccc13)Nc1ccccc1-2 (configuration not stated)	?	>57
COc1ccc(NC(=O)[C@@H]2[C@@H]3C(=O)N(C4CCCCC4)C(=O)[C@@H]3C3c4ccccc4C=CN32)cc1 (some centres not stated)	nt	>57
O=C(NCc1ccco1)C1CCN(S(=O)(=O)c2cccc3cccnc23)CC1	4.8%	>57
O=C(Nc1ccc2c(c1)OCO2)C1CCCN1C(=O)OCc1ccccc1 (configuration not stated)	5.1%	>57
COc1ccc2[nH]c(=O)c(CN(C(=O)NC3CCCCC3)C3CCCC3)cc2c1	7.7%	>57
COC(=O)NC(c1ccccc1)C(C#N)C(=O)OC (configuration not stated)	-9.3%[8 µM]	nt
CCOCC(=O)Nc1nc2ccc(OCC)cc2s1	24.5%	>57
NC[C@@H](O)CSCc1ccc(Cl)cc1	-2.7%[8 µM]	>11.4
Cn1c(NC(=O)C(C)(C)Oc2ccc(Cl)cc2)cc(=O)n(C)c1=O	-22.9%	>57

Filtered by structure, the entries above with two or more sulfur atoms
SMILES	Anthrax LT inh	SmPrx2 inh
Cn1c(SCC(=O)Nc2cccc(NC(=O)c3cccs3)c2)nnc1-c1ccncc1	-2.4%	>57
COC(=O)c1sc(N2C(=O)c3oc4ccccc4c(=O)c3C2c2cccs2)nc1C (configuration not stated)	-2.0%	>57

Five compounds drawn at random from the list so far, as already listed:
SMILES	Anthrax LT inh	SmPrx2 inh
O=C(CN1C(=O)c2ccccc2C1=O)N1CCOCC1	-4.2%	>57
COC(=O)c1sc(N2C(=O)c3oc4ccccc4c(=O)c3C2c2cccs2)nc1C (configuration not stated)	-2.0%	>57
O=C(NCc1ccco1)C1CCN(S(=O)(=O)c2cccc3cccnc23)CC1	4.8%	>57
NC[C@@H](O)CSCc1ccc(Cl)cc1	-2.7%[8 µM]	>11.4
CCOCC(=O)Nc1nc2ccc(OCC)cc2s1	24.5%	>57

(list continues)
SMILES	Anthrax LT inh	SmPrx2 inh
CCOC(=O)N1CCN(c2cc(=O)n(Cc3ccc(F)cc3)c(=O)[nH]2)CC1	0.0%	>57
CCN1CCN(c2ccc(NC(=O)c3cccc4ncccc34)cc2)CC1	?	>57
Cc1cccc(N2CCN(Cc3c(C)n(C)n(-c4ccccc4)c3=O)CC2)c1C	-10.8%	nt
Cc1nn(Cc2ccc(Cl)c(Cl)c2)c(C)c1NC(=O)c1cc(-c2ccc3c(c2)OCO3)on1	-8.3%	>57
CC(=O)Nn1cc2c(c1-c1ccccc1)c(=O)n(C)c(=O)n2C	-1.5%	nt
Cc1ccc2nc(C3CCN(C(=O)c4ccco4)CC3)[nH]c2c1	-3.8%	>57
Clc1ccccc1-c1nnc2sc(-c3ccccn3)nn12	-13.9%	>57
NC[C@@H](O)CSP(=O)(O)O	-0.4%[8 µM]	>57
CCOC(=O)N1CCN(C(=O)CN(c2ccc3c(c2)OCO3)S(C)(=O)=O)CC1	-2.1%	>57
CN1CCN(c2ncnc3ccc(-c4cccc(NS(C)(=O)=O)c4)cc23)CC1	?	>57
CCCOc1ccc(C2C(=O)N(C3CCCCC3)CC(=O)N2C2CC2)cc1OC (configuration not stated)	1.0%	>57
COc1cc(S(=O)(=O)N2CCN(Cc3ccc4c(c3)OCO4)CC2)c(C)cc1C	?	>57
CCn1c(Cc2ccccc2)nnc1SCC(=O)Nc1ccccc1	9.2%	>57
COc1ccc(/C=N/O)cc1COc1ccc(NC(C)=O)cc1	1.8%	nt
Cc1ccccc1OCc1nnc2n1CC(C)S2 (configuration not stated)	-1.0%	>57
O=C1c2ccccc2C(=O)N1CCCc1nc2ccccc2c(=O)n1CCCn1ccnc1	13.6%	>57
O=C(COc1ccc(S(=O)(=O)N2CCCC2)cc1)NCc1ccco1	-12.1%	>57
COC(=O)C(C)Sc1ccc2nnc(-c3ccc(F)cc3)n2n1 (configuration not stated)	?	>57
O=C(NCc1ccoc1)c1ccc(NC(=O)c2ccccc2Cl)cc1	3.5%	>57
Cc1cccc(-n2c(N)cc(=O)nc2SCC(=O)NC2CCCCC2)c1	6.2%	>57
Cc1ccccc1OCc1nc2ccccc2c(=O)n1/N=C/c1ccco1	-27.6%	>57
CCCCc1c(O)nc(SCC(=O)c2ccccc2)[nH]c1=O	-14.0%	>57
O=C(NCCCN1CCCC1=O)c1ccc2c(c1)OCO2	3.1%	>57
O=C(CSc1ccccn1)Nc1ccccc1F	-1.2%	>57
Cc1noc(C)c1C(=O)N1CCC2(CC1)CN(c1ccccc1)C2	-16.1%	>57
Cc1c(NC(=O)COC(=O)C2CC3C=CC2C3)c(=O)n(-c2ccccc2)n1C (configuration not stated)	3.0%	>57
CSc1nsc(SC)c1NC(=O)OCCc1ccccn1	-0.6%	>57
Nc1ccn([C@H]2O[C@H](CO)[C@@H]3[O][Sn]([c]4ccccc4)([c]4ccccc4)[O][C@H]32)c(=O)n1	-14.7%[8 µM]	>57
Nn1cc(-c2ccccc2)nc1SCC(=O)NC1CCS(=O)(=O)C1 (configuration not stated)	-2.2%	>57
CN1CCNC(=O)C1CC(=O)O (configuration not stated)	3.0%	>57
COc1ccc(S(=O)(=O)N(C)CC(=O)Nc2ccc(F)cc2)cc1	-3.1%	>57
CN(C)CCNc1oc(-c2ccccc2F)nc1C#N	-7.5%	>57
CCOC(=O)c1[nH]c(C)c(C(=O)Nc2ccc(C)c(F)c2)c1C	-15.1%	>57
O=C(O)COc1ccccc1C1C2C(=O)N(c3ccccc3)C(=O)C2ON1c1ccccc1 (configuration not stated)	-0.5%	>57
CC[C@@H](c1ccc2cc(O)ccc2c1)C(C)(C)C(=O)O	-12.7%[8 µM]	>57
COc1cc2ccc(=O)oc2cc1O	?	>57&>57
Cc1ccc(-c2c3c(=O)n(C)c(=O)n(C)c3cn2CCCN2CCOCC2)cc1	16.8%	>57
Cc1cc(C(=O)CSc2nncs2)c(C)n1-c1ccc2c(c1)OCO2	?	>57
O=C(O)[C@H](Cc1c[nH]c2ccccc12)N1C(=O)c2ccccc2C1=O	-12.8%[8 µM]	>57
Cc1ccc2c(c1)NCCO2	-6.1%	>57
O=CN1CCN(C2CC(=O)N(c3ccc4c(c3)OCO4)C2=O)CC1 (configuration not stated)	6.0%	>57
c1ccc2cc(OCCN3CCCC3)ccc2c1	-18.0%	nt
COc1ccccc1NC(=O)Cc1nn(C)c(=O)c2ccccc12	-1.4%	>57
Fc1ccc(-c2nnc(Cc3nnc(-c4ccc(F)cc4)o3)o2)cc1	-8.0%	>57
O=C(NCc1ccc(F)cc1)C1CCCN(S(=O)(=O)c2cccnc2)C1 (configuration not stated)	-0.6%	>57
O=c1c2c3c(sc2ncn1/N=C/c1ccco1)CCCC3	?	nt
CCCCn1c(O)c(C=NC2CC3CCC2(C)C3(C)C)c(=O)[nH]c1=O (configuration not stated)	28.6%	>57
CN(C(=O)c1cccc(C#N)c1)c1nnc(-c2ccccn2)s1	1.5%	>57
Nc1nc(=O)c2[nH]cnc2n1O	2.9%[8 µM]	>57
CCOc1ccc2nnnn2n1	0.0%	>57
COc1cccc(C(=O)OCc2ccccc2C#N)c1O	-2.0%	>57
O=C(c1ccc(COc2ccc3c(c2)CCC3)o1)N1CCN(c2ccccc2)CC1	?	>57
Clc1ccc(C2CC(c3ccccc3)Nc3ncnn32)cc1 (configuration not stated)	?	>57
CC(=O)Oc1ccc(C(=O)O)cc1OC(C)=O	-10.0%	>57
CC(=O)c1cccc(NC(=O)c2ccncc2)c1	-10.0%	>57
CCCCCCCCCCCCCCCC(=O)NCCO	?	>57&>57
CCOC(=O)c1cc(C)[nH]c(=S)c1C#N	-5.4%	>57
c1ccc2c(c1)Cc1cc3ccccc3nc1-2	?	>57
CC1CN(C(=O)N[C@@H](Cc2ccccc2)C(=O)O)CC(C)O1 (some centres not stated)	-19.5%	>57
CN(C)c1ccc(CNC(=O)[C@@]2(C)C=C[C@@H](Cc3ccccc3)N2C)cc1	0.4%	nt
(further entries)
SMILES	Anthrax LT inh	SmPrx2 inh
CCN(CC)CCCNC(=O)c1cc2c(-c3ccc(Cl)cc3)nn(C)c2s1	2.51µM*	>57
OC(COc1ccc(OCc2ccccc2)cc1)CN1CCCCC1 (configuration not stated)	4.5%	nt
CCOc1ccc(OCCSc2nnnn2C2CCCCC2)cc1	?	>57
O/N=C/c1cccn1-c1ccc(O)cc1	14.0%	nt
CCOC(=O)CSc1nnc(-c2ccc(S(=O)(=O)N3CCOCC3)cc2)n1-c1ccccc1	-10.3%	>57
COC(=O)c1nnn(-c2nonc2N)c1CSCCO	-1.1%	>57
CN(C)c1ccc(NC(=O)CN2C(=O)CC(c3ccccc3)=Nc3ccccc32)cc1	-3.9%	>57
CN(CP(=O)(O)CN(C)S(C)(=O)=O)S(C)(=O)=O	-7.8%	>57
C1CCC(Nc2nnnn2C2CCCCC2)CC1	-10.5%	>57
COc1ccc(N(CC(=O)NCc2ccco2)S(C)(=O)=O)cc1Cl	-17.1%	nt
CCCCCCS(=O)[C@H]1CS(=O)(=O)C[C@@H]1S(=O)CCCCCC (some centres not stated)	?	>57
CC(C)(C)NC(=O)Cn1nnnc1-c1nonc1N	-13.7%	>57
Cc1scc(C(=O)N2CCN(S(C)(=O)=O)CC2)c1-c1ccccc1	18.8%	>57
O=C(CCNC(=O)c1ccc(Br)o1)NC1CCCC1	-19.2%	>57
COc1ccc(CNc2ncncc2-c2ccc(C(=O)N(C)C)cc2)c(OC)c1	13.2%	>11.4
CCCn1cc(SCC(N)=O)c2ccccc21	14.4%	>57
COc1cc2ncnc(Nc3cccc(Br)c3)c2cc1OC	?	>57
Cc1ccc(-c2nc(CS(=O)CC(=O)NCc3ccccc3)c(C)o2)cc1 (configuration not stated)	-9.9%	>57
O=C(c1ccccc1)N1CCN(S(=O)(=O)N2CCCCC2)CC1	14.1%	>57
CCC(Sc1ccc2nnc(-c3cccnc3)n2n1)C(=O)O (configuration not stated)	2.9%	>57
CCCCC(=O)Nc1cccc(-c2nnc(-c3ccccc3)o2)c1	nt	>57
CC(C)CCNC(=O)COc1ccc2c3c(c(=O)oc2c1)CCC3	0.7%	>57
O=C(CSc1nnc(-c2ccncc2)n1C1CCCCC1)Nc1cccc(O)c1	6.6%	>57
O=C(c1cc(S(=O)(=O)N2CCOCC2)ccc1F)N1CCCc2ccccc21	-8.5%	>57
CN(C)c1ccccc1C(=O)c1ccccc1N(C)C	-28.7%	>57
CCOC(=O)CSc1nnc2c(n1)C1(C)CCC2C1(C)C (configuration not stated)	0.4%	>57
Cc1ccccc1-c1nc(CN2CCC(C(=O)N3CCC(C(N)=O)CC3)CC2)c(C)o1	-3.2%	>57
Cc1cc2c(=O)[nH]c(N)nc2nc1C	-11.6%[8 µM]	>57
CCCCCCC1Cc2cc(OC)c(OC)cc2C(C(C(=O)OCC)C(=O)OCC)O1 (configuration not stated)	-34.9%&-5.3%[8 µM]	nt
COCC(=O)N1CCC[C@@]2(CCN(C(c3ccccc3)c3ccccc3)C2)C1	16.0%	>57
COc1ccc(-c2oc3ncnc(NCCCN4CCOCC4)c3c2-c2ccc(OC)cc2)cc1	-5.4%	>57

Bioassay records from PubChem.

These rows are one share of the data, so the mix of outcomes need not match the whole.
